NPYLR7 ag – activates Aedes aegypti NPYLR7 receptor. HEK293T NPYLR7/Galpha15, GCaMP6s calcium fluorescence. activation, % at 10 µM. hit rate 0.15% among 270,000; in the data active = activation above about 40%;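 note: 0% = vehicle and 100% = reference agonist at the receptor; some compounds past the cut are filed as inactive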
NPYLR7 ag max-min – second read-out of NPYLR7 ag, no call of its own (marks repeat the call); activation, %; measured here: Max-Min RFU normalised activation; some inactives read as strong as hits;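 span of the calcium signal over five minutes; 0% = vehicle and 100% = native peptide agonist; compound fluorescence can raise it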
* hit, by the source's call; & = joins results of further samples.

CN(Cc1nnc2n1CCC2)C(=O)c1ccc2c(c1)OCCCO2 was read as NPYLR7 ag 0 and NPYLR7 ag max-min 0.
Screening Cc1cc(N2CCOCC2)n2nc(C)c(-c3ccccc3)c2n1 returned NPYLR7 ag 0 and NPYLR7 ag max-min -3.
For CCOC(=O)CC(=O)Nc1ccc2[nH]cc(CCN3CCN(c4cccc(C(F)(F)F)c4)CC3)c2c1 the results were NPYLR7 ag 0 and NPYLR7 ag max-min 9.
Cc1c(C)c(C(=O)NCc2ccco2)n(Cc2cccc(C(F)(F)F)c2)c1C was read as NPYLR7 ag 2 and NPYLR7 ag max-min 10.
Screening CN(Cc1cc(C2CC2)on1)c1nccc(CCC(F)(F)F)n1 returned NPYLR7 ag 5 and NPYLR7 ag max-min -1.
`CCOc1ccccc1N1CCN(C(=O)c2cc(-c3ccc(OC)cc3)n(-c3ccccc3F)c2C)CC1` gave NPYLR7 ag 1 and NPYLR7 ag max-min 12.
For CC(C)NC(=O)CNC(=O)c1cccc(CS(=O)(=O)c2ccccc2)c1 the results were NPYLR7 ag 8 and NPYLR7 ag max-min 3.
For Cc1ccccc1C(=O)NC(C(=O)N1CCCC1)C1CCN(C(=S)Nc2ccc(F)cc2)CC1 (centres undefined) the results were NPYLR7 ag 25 and NPYLR7 ag max-min 22.
`COc1ccc(C(=O)NN)cc1COc1ccc(Cl)cc1` gave NPYLR7 ag -1 and NPYLR7 ag max-min -1.
O=C(c1cc(Cn2ccc3ccccc32)[nH]n1)N1CC(N2CCOCC2)C1 was read as NPYLR7 ag 9 and NPYLR7 ag max-min 0.
`CC(C)(C)NC(=O)NC(=O)CSc1nncs1` gave NPYLR7 ag 2 and NPYLR7 ag max-min 2.
For Cc1cc(C(C)(C)C)cc(C)c1CCN1CN(CCO)c2nc3ccccc3n2C1 the results were NPYLR7 ag -3 and NPYLR7 ag max-min -4.
`O=C1CN(/N=C\c2ccc([N+](=O)[O-])o2)C(=O)N1` gave NPYLR7 ag -10&-7&5 and NPYLR7 ag max-min -14&-11&1.
Screening CCCc1nnc2sc(-c3cc(C(C)C)nn3C)nn12 returned NPYLR7 ag 5 and NPYLR7 ag max-min -4.
`CCCCN1C(=O)c2ccc(C(=O)N3CCCCC3C)cc2C1=O` (centres undefined) gave NPYLR7 ag 10 and NPYLR7 ag max-min 8.
`CC(C)n1nccc1NC(=O)C1CCN(C(=O)C(C)(C)C)CC1` gave NPYLR7 ag 0 and NPYLR7 ag max-min 1.
C=CCN(Cc1ccccc1OC)C(=O)c1c(-n2cnnn2)sc(C)c1C was read as NPYLR7 ag -8 and NPYLR7 ag max-min -11.
CC(=O)Nc1nc(SCC(N)=O)[nH]c(=O)c1NC(=O)c1ccc(F)cc1 was read as NPYLR7 ag 0 and NPYLR7 ag max-min 1.
Screening O=C(Cn1cnc2c(nnn2-c2ccc(F)cc2)c1=O)c1ccc(Cl)cc1 returned NPYLR7 ag 8 and NPYLR7 ag max-min 10.
O=C1OCCC1Sc1nnc(-c2cccs2)o1 (centres undefined) was read as NPYLR7 ag 1 and NPYLR7 ag max-min -1.
Screening CC1CN(c2ncnc3ccccc23)C(C)CO1 (centres undefined) returned NPYLR7 ag -5 and NPYLR7 ag max-min -8.
`COC(=O)CCC(=O)NC1CCCN(Cc2ccc(CC(C)C)cc2)C1` (centres undefined) gave NPYLR7 ag 7 and NPYLR7 ag max-min 4.
Cc1cc(C)n(CCC(=O)NCCc2c[nH]c3ccccc23)c(=O)n1 was read as NPYLR7 ag -2 and NPYLR7 ag max-min -3.
For CCc1ccc(C(NCc2cc(Br)cs2)C(C)C)cc1 (centres undefined) the results were NPYLR7 ag 1 and NPYLR7 ag max-min -3.
`CC(=NNS(=O)(=O)c1cc(C)ccc1C)c1ccc2c(c1)Nc1ccccc1S2` gave NPYLR7 ag -4 and NPYLR7 ag max-min -6.
Screening Cc1cc(SCC(=O)c2cccs2)n2ncc(-c3ccccc3)c2n1 returned NPYLR7 ag -2 and NPYLR7 ag max-min -4.
For O=S1(=O)CCN(c2nccc(CCC(F)(F)F)n2)CC1 the results were NPYLR7 ag 15 and NPYLR7 ag max-min 14.
Screening CCN(CCCn1cncn1)CC(=O)Nc1c(Cl)cccc1Cl returned NPYLR7 ag 3 and NPYLR7 ag max-min 2.
COc1coc(C(=O)NCCC(c2ccccc2)c2ccccc2)cc1=O was read as NPYLR7 ag 7 and NPYLR7 ag max-min 0.
Fc1ccc(CNCC2CCCO2)cc1 (centres undefined) was read as NPYLR7 ag 3 and NPYLR7 ag max-min 12.
`CC(=O)NC(C(=O)N1CCN(S(=O)(=O)c2ccc(C(C)C)cc2)CC1)C(C)C` (centres undefined) gave NPYLR7 ag 6 and NPYLR7 ag max-min 11.
For O=C(Cc1ccc(Cl)cc1)NC1CC2CCC(C1)N2Cc1ccc2c(c1)OCO2 (centres undefined) the results were NPYLR7 ag 1 and NPYLR7 ag max-min 6.
`Cc1cc(C)n(Cc2ccc(C(=O)N3CC(n4nc(C)cc4C)C3)cc2)n1` gave NPYLR7 ag 8 and NPYLR7 ag max-min 6.
Cc1ccccc1CN(C)c1nc(CN2CCOCC2)nc2sc3c(c12)CCC3 was read as NPYLR7 ag -16 and NPYLR7 ag max-min -11.
For O=S1(=O)C[C@H](Cl)[C@@H](Cl)C1 the results were NPYLR7 ag 0 and NPYLR7 ag max-min 7.
Screening CCOCCCN(CC(=O)N(Cc1ccccc1)Cc1cccn1Cc1ccc(F)cc1)C(=O)C(C)(C)CCl returned NPYLR7 ag -6 and NPYLR7 ag max-min -4.
For O=C(CCNc1nc(-c2ccccc2Cl)nc2ccccc12)N1CCCC1 the results were NPYLR7 ag 9 and NPYLR7 ag max-min 7.
For CC1CNC(=O)CCN1C(=O)CC12CC3CC(CC(C3)C1)C2 (centres undefined) the results were NPYLR7 ag 13 and NPYLR7 ag max-min 8.
For O=C1c2cccc3c(C#Cc4ccccc4)ccc(c23)C(=O)N1c1ccccc1 the results were NPYLR7 ag 5 and NPYLR7 ag max-min 4.
Screening CC1CN(c2nc(Cc3ccc(Cl)cc3)ns2)CCN1C(=O)c1ccc(Cl)cc1 (centres undefined) returned NPYLR7 ag 8 and NPYLR7 ag max-min 6.
`Nc1nc(NC2CC2)c2ncn(C3C=C[C@@H](CO)C3)c2n1` (some centres undefined) gave NPYLR7 ag 8 and NPYLR7 ag max-min 8.
Screening CC(=O)Nc1ccc2nc(CN3CCCC(N(C)CCc4ccccc4)C3)ccc2c1 (centres undefined) returned NPYLR7 ag 2 and NPYLR7 ag max-min 2.
For COc1ccc(S(=O)(=O)NCCc2ccc(F)cc2)cc1N1CCN(S(=O)(=O)c2ccccc2Cl)CC1 the results were NPYLR7 ag 27 and NPYLR7 ag max-min 13.
`COc1ccc(CC(=O)N2CCC3(CC2)NC(=O)c2c(Cl)cccc2N3)cc1` gave NPYLR7 ag 3 and NPYLR7 ag max-min 7.
CC(C)(C)c1cc(C(=O)N/N=C\c2ccccc2O)n[nH]1 was read as NPYLR7 ag 6 and NPYLR7 ag max-min 6.
For COc1ccc(NC(=O)C2CCN(C(=O)[C@@H](Cc3ccccc3)NC(=O)c3cccnc3Oc3ccc(Cl)cc3)CC2)cc1 the results were NPYLR7 ag -2 and NPYLR7 ag max-min 2.
Screening COCc1nc(N2CCN(c3ncccc3C)CC2)c2cnn(C)c2n1 returned NPYLR7 ag -3 and NPYLR7 ag max-min -7.
`O=C(O)c1csc(COc2cccc(Cl)c2)n1` gave NPYLR7 ag -7 and NPYLR7 ag max-min -4.

5 entries out of the list, arranged by molar mass, rising.
O=C1OCCC1Sc1nnc(-c2cccs2)o1 (centres undefined) was read as NPYLR7 ag 1 and NPYLR7 ag max-min -1.
`CC(C)n1nccc1NC(=O)C1CCN(C(=O)C(C)(C)C)CC1` gave NPYLR7 ag 0 and NPYLR7 ag max-min 1.
For CCc1ccc(C(NCc2cc(Br)cs2)C(C)C)cc1 (centres undefined) the results were NPYLR7 ag 1 and NPYLR7 ag max-min -3.
For O=C1c2cccc3c(C#Cc4ccccc4)ccc(c23)C(=O)N1c1ccccc1 the results were NPYLR7 ag 5 and NPYLR7 ag max-min 4.
`COc1ccc(CC(=O)N2CCC3(CC2)NC(=O)c2c(Cl)cccc2N3)cc1` gave NPYLR7 ag 3 and NPYLR7 ag max-min 7.

As a working copy, 4 of the compounds above.
CC(C)(C)c1cc(C(=O)N/N=C\c2ccccc2O)n[nH]1 was read as NPYLR7 ag 6 and NPYLR7 ag max-min 6.
For COc1ccc(NC(=O)C2CCN(C(=O)[C@@H](Cc3ccccc3)NC(=O)c3cccnc3Oc3ccc(Cl)cc3)CC2)cc1 the results were NPYLR7 ag -2 and NPYLR7 ag max-min 2.
Screening COCc1nc(N2CCN(c3ncccc3C)CC2)c2cnn(C)c2n1 returned NPYLR7 ag -3 and NPYLR7 ag max-min -7.
`O=C(O)c1csc(COc2cccc(Cl)c2)n1` gave NPYLR7 ag -7 and NPYLR7 ag max-min -4.

Additional results.
CCOc1ccc(C(=O)CSc2nccn(-c3ccc(OC)cc3)c2=O)cc1 was read as NPYLR7 ag 7 and NPYLR7 ag max-min 1.
For COC(=O)c1ccc(CC2(C)C(=O)Nc3ccc(Cl)cc32)o1 (centres undefined) the results were NPYLR7 ag 4 and NPYLR7 ag max-min 2.
For CC(=O)Oc1c(-c2ccc(NC(=O)c3cccc(Cl)c3)cc2)c(C(C)C)nn1-c1cccc(C)c1 the results were NPYLR7 ag 3 and NPYLR7 ag max-min 6.
Screening C=CCn1cc(CN2CCC(N(CC)C(C)=O)C2)c(C)n1 (centres undefined) returned NPYLR7 ag 0 and NPYLR7 ag max-min -4.
For C=C(C)COc1ccc(C(=O)N2[C@@H]3CC[C@H]2CC(O)C3)cc1 (some centres undefined) the results were NPYLR7 ag -4 and NPYLR7 ag max-min -8.
Screening O=C(c1cnn(-c2ccccc2)c1C(F)(F)F)N(Cc1ccco1)Cc1nc2cc(Cl)ccc2o1 returned NPYLR7 ag 3 and NPYLR7 ag max-min -3.
COc1ccc(/C=C/C(=O)NCCN2Cc3ccccc3OC(c3ccsc3)C2)cc1OC (centres undefined) was read as NPYLR7 ag 14 and NPYLR7 ag max-min 2.
CN(C)c1nc2nonc2nc1NC1CCOC(C)(C)C1 (centres undefined) was read as NPYLR7 ag -2 and NPYLR7 ag max-min -6.
For COc1ccc(C)cc1C(C)NCc1c(Cl)nc2ccccn12 (centres undefined) the results were NPYLR7 ag 4 and NPYLR7 ag max-min 0.
For CCN(CC)C(=O)c1scc2c1OCCO2 the results were NPYLR7 ag -2 and NPYLR7 ag max-min -5.
Screening Cc1cc(C)n2nc(SCC(=O)NCCOc3ccccc3)nc2n1 returned NPYLR7 ag -17 and NPYLR7 ag max-min -16.
`COc1cc(CC2(CCC(=O)N(C)Cc3n[nH]c4c3CCCC4)CCC(=O)N2)ccc1F` (centres undefined) gave NPYLR7 ag 3 and NPYLR7 ag max-min 1.
Screening Cc1noc(C)c1CSCC(=O)Nc1nccs1 returned NPYLR7 ag -7 and NPYLR7 ag max-min -7.
`CCCSc1nc2c(c(-c3ccco3)c1C#N)CCCC2` gave NPYLR7 ag -3 and NPYLR7 ag max-min -14.
Screening COc1ccc(-c2onc(C)c2C(=O)NCc2ccccc2Cl)cc1 returned NPYLR7 ag 16 and NPYLR7 ag max-min 5.
`Cc1cc(C)cc(-n2ncc3c2CCCC3NC(=O)Cc2c[nH]c3ccccc23)c1` (centres undefined) gave NPYLR7 ag 5 and NPYLR7 ag max-min 3.
For O=C(CN1C(=O)c2cccc([N+](=O)[O-])c2C1=O)Nc1ncccn1 the results were NPYLR7 ag 2 and NPYLR7 ag max-min -1.
COc1ccc(C(=O)n2nc(C(C)(C)C)cc2N)c(OC)c1OC was read as NPYLR7 ag -18&6 and NPYLR7 ag max-min -22&5.
`COC(=O)c1ccc(OC)c(CN2CCN(CC(C)C)C(=O)C2C)c1` (centres undefined) gave NPYLR7 ag -1 and NPYLR7 ag max-min -1.
`COc1cccc(CO[C@]2(C(=O)NC3CC3)CC(OCc3ccc(C#N)cc3)[C@@H]3OC(C)(C)O[C@@H]3C2)c1` (some centres undefined) gave NPYLR7 ag 22 and NPYLR7 ag max-min 9.
`O=C(NC1CCSc2c(F)cccc21)C1CC(=O)N(CC2CC2)C1` (centres undefined) gave NPYLR7 ag -22 and NPYLR7 ag max-min -22.
For CCCc1nc(C)cc(N(C)Cc2ncc[nH]2)n1 the results were NPYLR7 ag 15 and NPYLR7 ag max-min 12.
Cc1ccc(CN(C)Cc2cnc(N3CCOCC3)s2)o1 was read as NPYLR7 ag 0 and NPYLR7 ag max-min 1.
Cc1cc2c(c(=O)o1)C(c1ccc(F)cc1)C(C#N)C(=N)O2 (centres undefined) was read as NPYLR7 ag -10 and NPYLR7 ag max-min -16.
For CCOc1ccc(C2CC(c3ccc(F)cc3)=NN2C(=O)CN(C)C2CCCCC2)cc1 (centres undefined) the results were NPYLR7 ag -4 and NPYLR7 ag max-min 0.
Screening CN(C)CCCn1c2c(c(SCC(=O)Nc3cccc([N+](=O)[O-])c3)nc1=O)CCC2 returned NPYLR7 ag 6 and NPYLR7 ag max-min 6.
Screening Cc1nc2n(n1)C(=O)C(C(c1ccc(C(C)C)cc1)N1CCCC(C)C1)S2 (centres undefined) returned NPYLR7 ag 3 and NPYLR7 ag max-min -1.
Screening CN1CCC2(CC1)CN(C(=O)C(O)c1ccc(Cl)cc1)CCN2C (centres undefined) returned NPYLR7 ag 7 and NPYLR7 ag max-min 5.
For COC(=O)C1CCN(S(=O)(=O)c2ccc(C)c(C)c2)CC1 the results were NPYLR7 ag -2 and NPYLR7 ag max-min 30.

An excerpt; the hit share may differ from the screen's.
